gsp antag: antagonists of gsp mutant (McCune-Albright syndrome). Potency, µM (highest dose often 76.9 µM), without a hit: at the top dose activity change, negative = inhibition, usual class: inhibitors. 340,000 compounds, 0.4% hits. AID 624288. gsp-mutant cells, cAMP HTRF, 30 min; control for the full effect not named in the record; active = falling curve of any shape with a large fitted effect; inconclusive = falling curve, mostly with a smaller effect; inactive = flat or rising curve; cell line not stated here;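 further: intracellular cAMP measured with PDE inhibitor Ro 20-1724 present during compound exposure; potency means the concentration at half of the fitted maximal effect; on the % scale 0 is the no-effect control and ±100 the full control effect; nearly all actives have a fitted effect of over 65% in size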
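HTRF cAMP measurement after 30 min RT detection following 30 min, 37C compound treatment alongside […] (added as 300 uM solution) in G418-selected cells seeded at 2000/well and grown 16–24 h.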
TRPML1 agonist: human mucolipin-1 channel agonism; TRPML1-expressing cells, Ca2+ dye fluorescence, FDSS; host cell line not named in the record; reference of the full effect not given here; activation, % (no concentration beside the values); 410,000 compounds, 0.12% hits; AID 624414; in the data active = activation above about 50%; inconclusive = about 30% to 50%; inactive = below about 30%; further: 0% is about no effect; the text of the record puts the active cut at 80%
Target sequence (Q9GZU1 whole entry, looked up): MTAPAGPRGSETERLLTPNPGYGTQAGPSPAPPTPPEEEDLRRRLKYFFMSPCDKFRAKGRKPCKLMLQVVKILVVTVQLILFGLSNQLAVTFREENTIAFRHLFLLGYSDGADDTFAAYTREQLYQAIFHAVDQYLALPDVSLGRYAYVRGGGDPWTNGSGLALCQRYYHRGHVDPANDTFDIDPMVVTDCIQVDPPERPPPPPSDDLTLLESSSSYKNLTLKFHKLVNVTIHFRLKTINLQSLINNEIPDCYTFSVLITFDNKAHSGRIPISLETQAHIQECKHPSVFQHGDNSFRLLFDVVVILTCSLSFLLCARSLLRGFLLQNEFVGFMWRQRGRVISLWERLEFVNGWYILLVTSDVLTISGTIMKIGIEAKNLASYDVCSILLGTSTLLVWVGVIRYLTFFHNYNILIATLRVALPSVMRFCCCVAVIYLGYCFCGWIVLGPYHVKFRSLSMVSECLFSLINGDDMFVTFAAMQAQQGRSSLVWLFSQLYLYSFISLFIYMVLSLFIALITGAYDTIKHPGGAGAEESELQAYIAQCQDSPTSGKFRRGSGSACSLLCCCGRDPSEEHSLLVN
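Tetracycline-induced TRPML1-DL cells are seeded and incubated overnight before loading with a no-wash Ca2+ dye and quencher. Agonist activity is taken from the 110 s fluorescence read following compound pin-transfer on an FDSS, before EC80 54-4 challenge.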
TRPML1 blocker: blocks the human TRPML1 channel. TRPML1-inducible cells, Ca2+ dye fluorescence, FDSS; stronger effect = lower value; inhibition of EC80 agonist-evoked calcium signal. activity change, negative = inhibition, % (concentration not given with the values). 390,000 compounds, 0.02% hits; in the data active means activity change below about -50%; inconclusive means about -30% to -50%; inactive means above about -30%;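 further: stimulus is agonist 54-4 at its EC80 concentration; on the % scale 0 is the no-effect control and ±100 the full control effect; the text of the record puts the active cut at -80%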
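Calcium fluorescence in TRPML1-DL cells induced overnight with Tet: a 110 s read after compound pin addition, then a 110 s antagonist read after challenge with 54-4 at 4 uM final (EC80).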
ClpP mod: qHTS Assay for Activators of ClpP; ATP-dependent Clp protease proteolytic subunit (Bacillus subtilis (strain 168)), P80244; purified B. subtilis ClpP, FRET peptide cleavage, 20 min; Potency, µM (top dose mostly 57.5 µM), for the others: at the highest dose activity change, negative = active; 340,000 compounds, 1.9% hits; AID 651965, 2013; active = well fitted falling curve with a large enough effect; inconclusive = small, poorly fitted or top-dose-only effect; inactive = no such curve, though single readings can be large or run the other way; further: potency means the concentration at half of the fitted maximal effect; the source files actives as falling curves though it sought activators and does not explain the sign; nearly all actives have a fitted effect of over 65% in size; many hits overshoot -100%
Target sequence (P80244 whole entry, looked up): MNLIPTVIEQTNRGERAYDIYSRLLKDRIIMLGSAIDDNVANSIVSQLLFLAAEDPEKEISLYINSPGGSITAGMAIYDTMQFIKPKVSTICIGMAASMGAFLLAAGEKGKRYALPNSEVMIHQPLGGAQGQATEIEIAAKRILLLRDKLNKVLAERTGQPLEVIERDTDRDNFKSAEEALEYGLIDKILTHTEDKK
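Buffer: 100 mM Tris/HCl pH8, 100 mM KCl, 0.05% low protease BSA, 2.5% glycerol, 0.01% Tween-20. ClpP 10 microg/mL final; 20 min RT; delta FRET normalized to ADEP and DMSO controls.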
gsp ag: activates gsp, the McCune-Albright syndrome mutation. 340,000 compounds, 0.13% hits. AID 624287. gsp mutant cells, cAMP HTRF, 30 min; control for the full effect not named in the record. Potency, µM (doses to about 76.9 µM), inactives show at the top dose activation (cAMP increase), actives largely listed as activators; active = well fitted activation curve with a large enough effect; inconclusive = small, poorly fitted or top-dose-only effect, or another doubt; inactive = no such curve, though single readings can be large or run the other way; cell line not stated here;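 further: phosphodiesterase inhibitor Ro 20-1724 added with compounds to block cAMP breakdown; potency means the concentration at half of the fitted maximal effect; nearly all actives have a fitted effect of over 60% in size; about a fifth of the inactives were tested at one dose only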
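Cells stably selected in G418 were plated at 2000/well, grown 16-24 hr, then given compounds in DMSO with the PDE inhibitor […] (300 uM solution added) for 30 min at 37C; cAMP was read by HTRF.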
Menin-MLL FL inh: displaces fluorescein MLL peptide from human menin | Fluorescence polarization, fluorescein-MLL peptide displacement from menin | FP activity change, % at 61.4 µM | 290,000 tested, under 10 active; inconclusive = falling polarisation curve, or a change in total fluorescence; inactive = total fluorescence flat and polarisation flat or rising; no compound was filed as active; the % refers to the polarisation; negative = inhibition;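 further: % of control where 0% means no effect; inhibitors lower the polarisation; unlabelled MLL peptide was the positive control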
The depositor's hits bear a star; ? = inconclusive; . = no result given; & = joins results of further samples; [ ] = dose if it differs, or a comment.

Compound	gsp antag	TRPML1 agonist	TRPML1 blocker	ClpP mod	gsp ag	Menin-MLL FL inh
COc1ccc(OC)c(NC(=O)NCCc2cccc(Cl)c2)c1	-11%	2.8	5	.	-9%	8.4
COc1ccc(-c2noc(CNS(=O)(=O)c3ccccc3)n2)cc1	7%	-0.1	-2	-2.0%	0%	-3.3
CCCCOc1cccc(-c2nnc(NC(=O)CSc3ccc(C)cc3)s2)c1	10%	0.3	-5	-3.2%	-5%	8.1
CCOC(=O)/C(=N/Nc1ccccc1)N1CCCc2ccccc21	-9%	2.5	45	-1.8%	?	0.5
CC(=O)N1C(=O)C2(Nc3ccccc3N2)c2ccccc21	3%	-0.4	0	-22%	6%	-0.8
CSCCC(NC(=O)COc1ccccc1)C(=O)N(C)Cc1c(F)cccc1Cl (stereo unspecified)	.	1.7	4	0.0%	-56%[inhibitor]	.
COc1cccc(/C=C2/Sc3ccc(C(=O)NCCN4CCCCCC4)cc3NC2=O)c1	3%	0.3	-1	-1.1%	-38%[inhibitor]	-2.4
O=C(O)c1n[nH]c2c1CC(C1CCCCC1)CC2 (stereo unspecified)	0%	-1.0	-8	-0.6%	.	.
O=C(CSc1nnc(-c2ccc(Br)cc2)o1)Nc1cccc2ccccc12	7%	0.8	7	0.5%	-29%	2.0
NCCNC(=O)c1c(NC(=O)c2ccccc2)sc2c1CCCC2	-21%	-0.1	0	.	-50%[inhibitor]	1.3
COc1cc(OC)c(-c2nc(-c3ccncc3)no2)cc1OC	-3%	.	.	-0.7%	-9%	0.1
CCC(=O)Nc1ccc(NCc2ccc(-c3ccccc3)cc2)cc1	-2%	0.0	0	-1.4%	1%[15.4 µM]	9.3

(list continues)
Compound	gsp antag	TRPML1 agonist	TRPML1 blocker	ClpP mod	gsp ag	Menin-MLL FL inh
Cc1ccc(OCC(=O)c2cc(C)n(CC(F)(F)F)c2C)c([N+](=O)[O-])n1	6%	0.5	8	.	3%	-0.2
CN(C)CCCNC(=O)c1ccc(-c2nc(-c3ccc(Cl)cc3)cs2)cc1	21%	0.6	33	?	17%	0.7
COc1ccc(CC(=O)NC2CCN(CC(=O)N3CCCc4ccccc43)CC2)cc1OC	2%	0.2	16	-2.7%	13%	1.4
N#C/C(=C/c1cn(Cc2ccccc2Cl)c2ccccc12)C(=O)Nc1cccc(Cl)c1	.	-0.2	-19	0.0%	.	.
O=C(c1nc2ccccn2c1CNCCCn1nnc2ccccc21)N1CCOCC1	7%	-0.1	-2	-0.9%	8%	-2.5
CC(NC(=O)c1cccs1)C(c1cccs1)N1CCOCC1 (stereo unspecified)	-11%	0.0	12	-1.5%	-10%	8.3
Cc1ccnc(NC(=O)CNC(=O)COc2ccccc2)c1	6%	-0.5	-2	-3.9%	1%	.
Cc1ccc(C(=O)C(C)OC(=O)CNC(=O)c2ccc(Br)o2)cc1 (stereo unspecified)	-9%	-0.1	-12	.	24%[15.4 µM]	.
CCOC(=O)CSc1nc2ccccc2c(=O)n1CC1CCCC1	-21%	1.6	57	-2.1%	-42%[inhibitor]	-2.3
CCOC(=O)C1(CCc2ccccc2)CCN(C(=O)C2=C(C)OCCO2)CC1	-2%	0.3	0	.	7%[15.4 µM]	-2.1
Cc1cccc(NC(=O)c2cc3c(=O)n4cccc(C)c4nc3s2)c1C	.	2.3	22	-28%	.	.
CCC(=O)N/N=C/c1ccc(-c2ccc([N+](=O)[O-])cc2)o1	?	1.7	-22	.	13%	11

Next records follow:
Compound	gsp antag	TRPML1 agonist	TRPML1 blocker	ClpP mod	gsp ag	Menin-MLL FL inh
CCCCn1c(N)c(N(CCC(C)C)C(=O)c2[nH]c(C)c(C(=O)OCC)c2C)c(=O)[nH]c1=O	-7%	-0.4	3	18µM*	-10%[15.4 µM]	.
Cc1ccc(CSCC(=O)NN=C2CCN(C)CC2)cc1	9%	1.2	4	35%	-51%[inhibitor]	.
CN(C(=O)COC(=O)CNC(=O)c1ccc(Cl)cc1Cl)c1ccccc1	.	0.9	3	.	5%[15.4 µM]	-0.8
O=C(Nc1ccccc1)c1ccc(-c2ccc(F)cc2)s1	.	0.2	-18	.	29%[15.4 µM]	-0.6
O=C(CCNS(=O)(=O)c1ccccc1C(F)(F)F)NCC(c1ccco1)N1CCCCC1 (stereo unspecified)	13%	-0.4	13	.	14%[15.4 µM]	.
CCOC(=O)c1c(C)c(C(=O)NCCc2ccc(OC)cc2)c(C)n1CC	.	-0.4	-17	2.1%	.	.
O=C1CC(c2ccccc2Cl)CC(O)=C1C=Nc1ccccc1 (stereo unspecified)	2%	1.2	37	-1.5%	-1%[15.4 µM]	6.6
CCc1ccc(CNC(=O)c2ccc(CSc3nc4ccncc4n3Cc3ccccc3)cc2)cc1	.	1.7	-14	32µM*	.	.
NC(=O)C(c1ccccc1)c1ccc(C(=O)c2ccccc2)cc1 (stereo unspecified)	5%	0.3	5	.	-19%	-0.7
CCc1ccccc1NC(=O)CN(C)C(=O)c1cccc(S(=O)(=O)N2CCCCCC2)c1	-1%	0.2	30	0.7%	-25%	.
CCOc1ccc(-c2cc3c(=O)n(Cc4nc(-c5ccccc5OCC)oc4C)ccn3n2)cc1Cl	.	-0.3	-13	-3.9%	.	.
N#CC1(Nc2ccc(-c3ccc(NC4(C#N)CCCC4)cc3)cc2)CCCC1	-23%	-0.2	13	?	-32%[inhibitor]	.

Remaining list, next part.
Compound	gsp antag	TRPML1 agonist	TRPML1 blocker	ClpP mod	gsp ag	Menin-MLL FL inh
Cc1cc(C)c2cc(C(=O)N3CCC(N4CCCCC4)CC3)[nH]c2c1	21%	0.2	-5	-2.4%	-35%[inhibitor]	.
c1ccc(-n2nnnc2SCc2cccc(CSc3nnnn3-c3ccccc3)n2)cc1	-11%	1.0	2	-4.3%	-14%	-1.3
c1csc(-c2nc3nc4ccccc4nc3n2Cc2ccc3c(c2)OCO3)c1	8%	-0.5	4	-14%	?	1.8
O=Cc1cccn1Cc1ccc(Cl)cc1Cl	1%	2.1	3	-0.9%	?	-0.2
Cc1cccc(NC(=O)CSc2nc(=O)n(CCN3CCOCC3)c3c2CCC3)c1	.	-0.4	4	-7.3%	.	.
CC(C)(Oc1ccc(Cl)cc1)C(=O)NCc1ccc(S(N)(=O)=O)cc1	6%	-0.7	2	.	-49%[inhibitor]	1.0
O=C(CN1C(=O)/C(=C\c2cccs2)SC1=S)Nc1cccc(C(=O)O)c1	0%	-0.2	-22	-0.8%	24%	1.4
COc1ccc(NC(=O)C2CCCN(S(=O)(=O)c3ccc4c(c3)oc(=O)n4C)C2)c(OC)c1 (stereo unspecified)	1%	0.3&-1.2	4&24	-1.9%&-0.5%	1%	-2.1
COc1cc(OC)c(OC)cc1CN1CCCC(C(=O)c2ccccc2SC)C1 (stereo unspecified)	2%	-0.9	-14	0.7%	0%[15.4 µM]	1.5
CC1(C)CCCN(C(=O)c2ccc3c(c2NCCO)C(=O)c2ccccc2C3=O)C1	-13%	0.1	-8	1.9%	1%	1.2
O=C(NCCc1ccccc1)c1cc(-c2ccncc2)nc2ccc(S(=O)(=O)N3CCOCC3)cc12	-26%	5.4	14	1.1%	?	8.2
O=C(CCC1CCN(C(=O)C2CC=CCC2)CC1)Nc1ccccc1 (stereo unspecified)	.	-0.8	-1	0.2%	-123%[inhibitor]	.

Later entries:
Compound	gsp antag	TRPML1 agonist	TRPML1 blocker	ClpP mod	gsp ag	Menin-MLL FL inh
CCCCNC(=O)c1ccc(CS(=O)(=O)c2cccc(C(F)(F)F)c2)o1	-3%	0.0	-16	-1.5%	-8%	14
COC(=O)c1cnn(-c2cc(Oc3cccc(C)c3)ncn2)c1N	7%	1.3	14	-4.2%	-4%	3.8
COc1ccc(CNC(=O)CN2C(=O)CSc3ccc(S(=O)(=O)N4CCOCC4)cc32)c(OC)c1	-13%	-1.2&0.2	-3&-13	0.5%&1.0%	-2%	.
Cc1ccc(S(=O)(=O)N(CCc2ccccc2)CC(=O)Nc2cc(C)ccc2C)cc1	.	-0.5	-8	0.0%	.	.
CN1CCN(C(=O)C2CCN(c3ncnc4c3nc3n4CCCCC3)CC2)CC1	0%	0.5	7	-0.7%	?	-2.1
CC1CC(C)CN(CC(O)COCc2ccccc2)C1 (stereo unspecified)	11%	0.2	-1	.	0%	0.8
O=P(NCc1ccccc1)(OCc1ccccc1)OCc1ccccc1	7%	1.2	0	1.3%	-28%	.
COc1ccc(-c2nc3nc(C)cc(=O)n3[nH]2)cc1	4%	0.4	5	-1.1%	-27%	-1.3
CC/C(O)=C1\C(=O)CCCC1=NCc1nc2ccccc2[nH]1	7%	-0.2	-8	-3.8%	-14%[15.4 µM]	0.2
C=CCn1c(SCC(=O)Nc2sccc2C(N)=O)nc2ccc(Cl)cc2c1=O	-30%	2.3	3	-1.7%	13%	5.2
CCOc1ccccc1/C=N/Nc1ccnc(=O)[nH]1	-3%	0.1	-6	.	-12%	-22
CC(=O)c1ccc(NC(=O)C2C3C=CC(O3)C2C(=O)O)cc1 (stereo unspecified)	8%	2.2	-7	.	-12%	2.5

(cont.)
Compound	gsp antag	TRPML1 agonist	TRPML1 blocker	ClpP mod	gsp ag	Menin-MLL FL inh
O=C(CCCOc1cccc(Br)c1)NC1CCC(O)CC1 (stereo unspecified)	-10%	-0.4	-7	0.5%	-28%	.
Cc1cc(OCC(=O)O)c2ccccc2n1	9%	3.2	-1	-4.2%	1%	-2.0
CN(CC(=O)Nc1ccc(F)cc1)C(=O)CN1C(=O)c2ccccc2C1=O	0%	0.1	-12	2.9%	8%	.
CC(=O)Nc1ccc(NS(=O)(=O)c2ccc3c(c2)CC(C)N3C(=O)C2CCC2)cc1 (stereo unspecified)	.	-1.0	-3	-1.0%	.	.
Cc1csc(NC(=O)c2ccc3ccccc3n2)n1	-12%	-0.3	31	-0.7%	-10%[15.4 µM]	-0.3
O=C(Nc1ccccc1NC(=O)c1ccco1)c1ccco1	5%	-0.2	5	1.4%	-1%	1.4
CC1(C)N=C(SCC(=O)Nc2ccccc2)C(c2ccc(Cl)cc2)=N1	-18%	1.4	26	0.1%	?	2.3
N#Cc1nc(-c2ccccc2Cl)oc1N1CCOCC1	2%	-0.4	-12	8.9µM*	6%	0.3
C/C(O)=C(/N=O)C(=O)Nc1ccccc1	-4%	0.6	-4	0.9%	-28%	1.5
COc1ccc(C2CC2/C(C)=N/OC(=O)C2CC2)cc1 (stereo unspecified)	7%	1.2	25	.	-2%	-0.4
CC(=N)c1c(O)cc(C)oc1=O	9%	0.5	1	.	1%	.
O=C(CC1C(=O)NCCN1Cc1c(F)cccc1Cl)NCCCOc1cccnc1 (stereo unspecified)	9%	0.7	-16	-3.7%	-11%	-8.5
COc1ccc(C(=O)c2oc3ccc(OC)cc3c2N)cc1	-16%	-0.4	-1	1.2%	1%	1.3

Source: PubChem (National Center for Advancing Translational Sciences (NCATS))
